Screening results: PubChem BioAssay, National Center for Advancing Translational Sciences (NCATS)
Lassa entry inh = blocks Lassa virus binding to or entry into cells | Lassa virus pseudotype entry inhibition, cell reporter; control for the full effect not named in the record | Potency, µM (series often up to 37.9 µM), for the others: top-dose activity change, negative = inhibition, hits mostly inhibitors | 300,000 compounds, 1.2% hits; active means well fitted inhibition curve with a large enough effect; inconclusive means small, poorly fitted or top-dose-only effect, or effect the other way; inactive means flat fitted curve, though single readings scatter; tested in HEK293 cells; further: on the % scale 0 is the no-effect control and ±100 the full control effect; nearly all actives have a fitted effect of over 50% in size; luciferase read-out
MARV entry inh = Marburg virus entry inhibition; Marburg virus pseudotyped entry inhibition, cell reporter; control for the full effect not named in the record; about a third of the inactives were read at about 46 µM; Potency, µM (series often up to 37.8 µM), without a hit: at the highest dose activity change, negative = inhibition, actives largely listed as inhibitors; 300,000 compounds, 1.8% hits; active = well fitted inhibition curve with a large enough effect; inconclusive = small, poorly fitted or top-dose-only effect, or effect the other way; inactive = flat fitted curve, though single readings scatter; tested in HEK293 cells; about a fifth of its hits are not listed in these tables; further: on the % scale 0 is the no-effect control and ±100 the full control effect; luciferase read-out
SARS PLP yeast = inhibitors of SARS-CoV papain-like protease in yeast | S. cerevisiae expressing SARS-CoV PLpro, growth rescue; control for the full effect not named in the record | Potency, µM (titrated, usually from 32.9 µM), for the others: top-dose activity, positive = growth rescue | 330,000 compounds, 0.19% hits; further: 0% is about no effect; nearly all actives have a fitted effect of over 55% in size; growth read by luminescence after 48 h
NS1 inh = blocks influenza NS1 protein function | S. cerevisiae slowed by influenza A NS1, growth recovery by OD600 | AID 2326 | Potency, µM (series often up to 46.1 µM), without a hit: at the top dose activity, positive = more growth | 270,000 compounds, 0.4% hits; further: actives are rising curves; nearly all actives have a fitted effect of over 50% in size
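Growth recovery, yeast-based: influenza A NS1 expressed in S. cerevisiae causes slow growth, and suppressors are detected by OD600. The parent strain without NS1 is used as positive control.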
RE007 growth inh = less growth of the S. pombe RE007 Vpr strain; S. pombe RE007 Vpr strain, BacTiter-Glo ATP luminescence, 24 h; control for the full effect not named in the record; Potency, µM (titrated, usually from 92.2 µM), for the others: top-dose activity change, negative = less growth; 360,000 compounds, 0.21% hits; AID 651644; active = well fitted falling curve with a large enough effect; inconclusive = small, poorly fitted or top-dose-only effect; inactive = no such curve, though single readings can be large or run the other way;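 further: on the % scale 0 is the no-effect control and ±100 the full control effect; nearly all actives have a fitted effect of over 50% in size; the assay follows cell death caused by Vpr and the record does not say whether a fall means rescue or toxicity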
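Fission yeast RE007 carrying one integrated HIV-1 vpr copy, seeded at OD 0.01 in PMG+AL medium with 23 nL pinned compound. Grown 24 h at 30 degrees; viability read by BacTiter-Glo luminescence after 5 min.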
StopGo reporter = FMDV 2A StopGo reporter, luciferase signal. 410,000 compounds, 1.2% hits. human cells with a luciferase reporter of 2A StopGo recoding; control for the full effect not named in the record. Potency, µM (highest dose often 57.9 µM), without a hit: at the highest dose signal change, negative = less light; active = well fitted falling curve with a large enough effect; inconclusive = small, poorly fitted or top-dose-only effect; inactive = no such curve, though single readings can be large or run the other way; tested in HEK293T cells; further: on the % scale 0 is the no-effect control and ±100 the full control effect; nearly all actives have a fitted effect of over 45% in size; luciferase light after 4 h
Cruzain Triton = blocks cruzain activity in presence of Triton detergent; Potency, µM, inactives show max response, negative = inhibition, most hits filed as inhibitors; 200,000 compounds, 0.43% hits; AID 1478; purified cruzain, Z-FR-AMC fluorescence, 0.01% Triton; P25779; active means well fitted curve in the direction sought with a large enough effect; inconclusive means small, poorly fitted or top-dose-only effect, or another doubt; inactive means no such curve, though single readings can be large; an effect the other way counts as inactive or inconclusive;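 further: plate controls were neutral wells for no effect and buffer without enzyme for full effect; nearly all actives have a fitted effect of over 40% in size; top concentration of the series not given in the record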
Target sequence (P25779 123-467 limits assumed): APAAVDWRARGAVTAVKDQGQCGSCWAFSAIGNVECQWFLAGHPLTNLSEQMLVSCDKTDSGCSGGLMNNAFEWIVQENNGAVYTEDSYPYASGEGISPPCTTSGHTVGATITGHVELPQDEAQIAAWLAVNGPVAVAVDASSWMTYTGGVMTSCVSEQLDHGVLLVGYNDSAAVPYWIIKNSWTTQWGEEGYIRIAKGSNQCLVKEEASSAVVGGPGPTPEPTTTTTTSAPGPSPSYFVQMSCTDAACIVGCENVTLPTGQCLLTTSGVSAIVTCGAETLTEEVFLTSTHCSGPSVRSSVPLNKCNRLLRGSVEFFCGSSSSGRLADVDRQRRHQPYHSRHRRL
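Cysteine protease activity tested under reducing, mildly acidic conditions (100 mM sodium acetate pH 5.5, 5 mM DTT) plus 0.01% Triton X-100. Cruzain 1.5 nM; substrate Z-FR-AMC 2 uM; 15 min compound preincubation at room temperature.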
Cruzain inh noDet = cruzain (T. cruzi) inhibition without detergent; P25779; purified cruzain, Z-FR-AMC fluorescence, no detergent; Potency, µM, for inactives: max response, negative = inhibition, actives largely listed as inhibitors; 200,000 compounds, 2.3% hits; AID 1476; active means well fitted curve in the direction sought with a large enough effect; inconclusive means small, poorly fitted or top-dose-only effect, or another doubt; inactive means no such curve, though single readings can be large; an effect the other way counts as inactive or inconclusive;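 further: plate controls were enzyme without inhibitor for no effect and buffer without enzyme for full effect; nearly all actives have a fitted effect of over 40% in size; top concentration of the series not given in the record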
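Detergent-free condition (0.00005% Triton X-100) in acetate buffer pH 5.5 with DTT. 1.5 nM enzyme and compound were pre-mixed 15 min, then 2 uM Z-FR-AMC substrate added; reaction progress from fluorescence change between first and third reads (60 s).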
Starred values were filed as active, the others as inactive; ? = inconclusive; / = no result given; & = joins results of further samples; [ ] = another dose, or the depositor's remark. Unless noted, the call rests on the fitted dose curve; in most records, active means well fitted rising curve with a large enough effect; inconclusive means small, poorly fitted or top-dose-only effect; inactive means no such curve, though single readings can be large or run the other way. Potency means the concentration at half of the fitted maximal effect. Compounds as they come; any-hit rate near 4.7%.

SMILES	Lassa entry inh	MARV entry inh	SARS PLP yeast	NS1 inh	RE007 growth inh	StopGo reporter	Cruzain Triton	Cruzain inh noDet
Cc1csc(CNC(=O)c2cc(COc3c(C)cccc3C)on2)n1	/	/	-15%	-11%	-1%	-2%	/	/
CC(C)N1CCN(Cc2ccc3c(c2)OCCO3)CC1CCO (centres undefined)	/	/	1%	-1%	20%	-14%	/	/
O=C(NN(Cc1ccccc1)Cc1ccccc1)c1ccccc1	-7%[46.1 µM]	?	/	/	-3%	-2%	/	/
CC(C)(C)C(=O)Cn1ncc(Br)c(Br)c1=O	/	/	-1%	-7%	-23%	?	/	/
O=C(Nc1ccc(Oc2ncnc3cc(Cl)ccc23)nc1)c1cccs1	/	/	2%	1%	-17%	-4%	/	/
O=C(CSc1nnnn1-c1ccccc1F)NNC(=O)c1ccco1	/	/	0%	0%	-4%	0%	/	/
CC(C)=CCN1CCN(Cc2ccc(C#CC(C)(C)O)cc2)CC1CCO (centres undefined)	1%	-1%[46.1 µM]	-1%	-2%	-1%	-8%	/	/
O=C1COc2ccc(S(=O)(=O)CCC(=O)N3CCN(c4ccccc4)CC3)cc2N1	/	/	-1%	0%	-4%	-13%	/	/
CCC(C)N1CCN(C(=O)c2cc(OC)cc(OC)c2)CC1 (centres undefined)	/	/	-7%	-4%	0%	-1%	/	/
Cc1ccc(C(=O)c2oc3ccccc3c2NC(=O)COc2ccccc2C)cc1	-6%[46.1 µM]	1%[46.1 µM]	/	/	/	-14%	0.4%	17%
CC(=O)N1c2ccc(S(=O)(=O)N3CCCCC3)cc2CC1C(=O)Nc1cccc(C)c1 (centres undefined)	/	/	-1%	9%	2%	0%	/	/
CSc1nnc2c(n1)OC1(Nc3ccccc3-2)C(=O)Nc2ccccc21 (centres undefined)	7%	-2%	-4%	/	3%	-8%	/	/
CCOCC(=O)Nc1nnc(COCC)s1	?	-1%	-1%	10%	2%	13%	6.3%	-5%
C=CCc1ccccc1OCC(O)CN1CCN(C(=O)OCC)CC1 (centres undefined)	-4%	5%&2%	9%	-6%	3%	-14%	3.9%	-7%
Cc1cccc(Nc2nnc(SCC3CCCCO3)s2)c1 (centres undefined)	?	?	-49%	-9%	-30%	51%[activator]	-12%	-5%
Cc1ccc(C)c(N2CCN(C(=O)CCc3nc4ccccc4[nH]3)CC2)c1	-3%	0%	-15%	-92%	-11%	-24%	1.3%	7%
N/C(=N\OC(=O)c1ccc(Cl)c([N+](=O)[O-])c1)c1ccccn1	?	3.2µM*	-8%	/	10%	49%[activator]	/	/
CC(C)OC(=O)CSc1nnc(CNc2cccc(Cl)c2)n1C	-3%	11%[46.1 µM]	23%	1%	-8%	-27%	3.3%	1%
CCOc1ccc(C2C([N+](=O)[O-])=C(C)N(C)C(=O)N2C)cc1OC (centres undefined)	/	/	-1%	-1%	7%	-1%	/	/
COc1ccc(NS(=O)(=O)c2ccc(O)c(C(=O)OCC(=O)Nc3ccc4c(c3)OCCO4)c2)cc1	13%	3%	-14%	20%	3%	-6%	-2.8%	7.9µM*
COc1cc(S(=O)(=O)N2CCC(N3CCCCC3)CC2)ccc1-n1cnnn1	-9%	-9%	2%	12%	0%	-16%	-1.9%	-1%
O=C(CCCNS(=O)(=O)c1ccc(Cl)c(Cl)c1)NCCc1ccccn1	-11%	8%	1%	-2%	-10%	-5%	/	/
Cc1cc(OCC(=O)O)c2ccccc2n1	0%	?	14%	1%	24%	-7%	3.0%	4%
O=C(COC(=O)c1c(F)cccc1F)Nc1ccc2c(c1)OCO2	-4%	28%[46.1 µM]	4%	/	-1%	40%[activator]	/	/
COc1cc(C(=O)Nc2c(C)cc(C)cc2C)c(-n2cnnn2)cc1OC	-23%	-4%	1%	0%	21%	-4%	-0.2%	-2%

(more compounds)
SMILES	Lassa entry inh	MARV entry inh	SARS PLP yeast	NS1 inh	RE007 growth inh	StopGo reporter	Cruzain Triton	Cruzain inh noDet
Cc1cc(=O)[nH]c2n[nH]c(-c3ccccc3)c12	?	15%	-2%	1%	3%	3%	1.7%	3%
CCN=C1SC(C(=O)Nc2cccc(OCC)c2)CC(=O)N1CC (centres undefined)	-2%	?	0%	-4%	14%	/	1.6%	14%
CCOc1ccc(-c2nnn(CC(=O)N3CCN(c4ccc(F)cc4)CC3)n2)cc1OCC	7%	12%	13%	2%	-3%	-30%	3.5%	28%
Cc1nn(-c2ccccc2)c2c1cc1c(=O)[nH]c(=O)nc-1n2-c1cccc(C(F)(F)F)c1	16%[46.1 µM]	6%[46.1 µM]	/	/	/	-3%	-3.9%	14%
CCN1CCN(c2cc(C(C)C)nc3c(-c4ccccc4)c(C)nn23)CC1	?	?	-1%	-3%	-12%	-20%	/	/
Cc1cc(C)c(NC(=O)Cn2nc3c(cc2=O)CCCC3)c(C)c1	-5%[46.1 µM]	/	/	/	/	-11%	0.3%	4%
COc1ccc(C(CC(=O)O)NC(=O)c2ccccc2[N+](=O)[O-])cc1 (centres undefined)	/	/	0%	0%	0%	-9%	/	/
COc1ccccc1NC(=O)CN1C(=O)C(c2ccc(F)cc2)=NC1(C)C	22%[46.1 µM]	?	/	/	/	?	-3.4%	-5%
CC(NC(=O)c1ccc(Br)s1)C1CCCO1 (centres undefined)	?	13%	11%	3%	18%	19%	-1.1%	-1%
COc1ccc(OC)c(NC(=O)CSc2ccc(-c3sc(C)nc3C)nn2)c1	?	/	/	/	/	?	-3.7%	5%
C=CCn1c(COc2ccccc2)nnc1SCC(=O)N/N=C/c1cc(Cl)ccc1O	?	-16%	/	-21%	0%	-14%	-3.9%	4%
CCc1ccccc1OCC(=O)Nc1ccc(S(=O)(=O)Nc2nc(C)cc(C)n2)cc1	-6%[46.1 µM]	?	/	/	/	66%[activator]	-7.4%	?
Cc1ccc(-n2c(N)c(C(=O)Nc3ccccc3F)sc2=S)cc1C	5%[46.1 µM]	?	9%	/	10%	9%	/	/
CC1c2ccccc2-c2ccccc2N1C (centres undefined)	11%	-5%	/	/	1%	8%	/	/
CCC(=O)NC(=S)Nc1cccc(NC(=O)c2ccccc2Cl)c1	11%	-9%	-12%	4%	-4%	-14%	-19%	-4%
Oc1ccc(Cl)cc1-c1cc(-c2ccco2)[nH]n1	8%	25%	-36%	-230%	?	20%	-10%	0%
Cc1ccc(C2=NS(=O)(=O)N(C)C(C(=O)NCc3ccc4c(c3)OCO4)=C2)cc1	/	/	-9%	-25%	-3%	-12%	/	/
CCN(CC)N=O	/	/	-1%	/	-13%	-16%	0.3%	7%
COC(=O)C1=C2SC(C)C(=O)N2C(N)=C(C#N)C1c1ccc(OC)c(OC)c1 (centres undefined)	?	11%	12%	?	31%	-21%	-8.0%	-13%
CC(C)(C)N(Cc1cc2ccccc2[nH]c1=O)C(=O)c1ccco1	-12%	4%[46.1 µM]	-3%	/	-5%	-20%	/	/
CN(C)S(=O)(=O)N1CCC(Oc2cccc(C(=O)NC3CCCCC3)c2)CC1	?	-10%[46.1 µM]	14%	-10%	5%	?	/	/
O=C(NC(=S)NCc1cccnc1)c1cc(Br)ccc1Cl	?	-3%[46.1 µM]	5%	15%	7%	-12%	/	/
Cc1ccc(C(=O)COC(=O)CNC(=O)CNC(=O)c2ccc(C)cc2)cc1	9%	28%	4%	10%	-7%	-7%	5.4%	1%
Cc1ccc(NC(=O)C2CCN(S(=O)(=O)c3ccc4ccccc4c3)CC2)nc1	22%	?	3%	/	13%	6%	/	/
CCN(CC)CCn1c(NCc2ccco2)nc2ccccc21	4%	-14%	0%	7%	1%	-4%	0.0%	-1%

Copied from the list.
Value for CCOc1ccc(-c2nnn(CC(=O)N3CCN(c4ccc(F)cc4)CC3)n2)cc1OCC in Cruzain Triton: 3.5%
Value for COc1ccc(OC)c(NC(=O)CSc2ccc(-c3sc(C)nc3C)nn2)c1 in Cruzain inh noDet: 5%
Value for Oc1ccc(Cl)cc1-c1cc(-c2ccco2)[nH]n1 in Cruzain inh noDet: 0%

The main list resumes, repeating the two entries before the break.
SMILES	Lassa entry inh	MARV entry inh	SARS PLP yeast	NS1 inh	RE007 growth inh	StopGo reporter	Cruzain Triton	Cruzain inh noDet
Cc1ccc(NC(=O)C2CCN(S(=O)(=O)c3ccc4ccccc4c3)CC2)nc1	22%	?	3%	/	13%	6%	/	/
CCN(CC)CCn1c(NCc2ccco2)nc2ccccc21	4%	-14%	0%	7%	1%	-4%	0.0%	-1%
COc1ccc(Cl)cc1N(CC(=O)N1CCC(C)CC1)S(C)(=O)=O	8%	17%	1%	1%	2%	28%	3.6%	0%
CCOC(=O)CN(c1ccccc1)S(=O)(=O)c1ccc(F)cc1	-4%[46.1 µM]	2%[46.1 µM]	-1%	/	-28%	-4%	/	/
Cc1ccc(S(=O)(=O)NC(=O)Nc2ccc(N(C)C)cc2)cc1	13µM*	?	-10%	-12%	-24%	24%	/	/
COCCN=C1Sc2nc3cc(C)c(C)cc3cc2CN1Cc1cccs1	10%	-24%[46.1 µM]	4%	-1%	-2%	-3%	/	/
COc1ccc(C(=O)Nn2c(SCc3cccc([N+](=O)[O-])c3)nc3ccccc3c2=O)cc1	3.3µM*	8.9µM*	-7%	?	9%	?	-5.1%	?
O=C(c1cccc(S(=O)(=O)N2CCOCC2)c1)N1CCN(S(=O)(=O)c2cccs2)CC1	11%	-28%[46.1 µM]	7%	/	6%	-18%	/	/
COc1cc(C2C3=C(CC(C)(C)CC3=O)Nc3ccccc3N2C(C)=O)cc(OC)c1OC (centres undefined)	/	/	2%	3%	-5%	17%	/	/
CCn1c(COc2ccc3c(c2)OCO3)nnc1SCC(=O)c1ccc(Cl)cc1	-4%	-10%[46.1 µM]	2%	-1%	14%	-7%	-3.3%	-4%
COc1ccc(CCN2C(=O)CN(C3CCCCCC3)C(=O)C2c2ccc(C)cc2)cc1OC (centres undefined)	10%[46.1 µM]	/	/	/	/	3%	-0.1%	-3%
